Insulin prom inh – inhibitors of insulin promoter-driven GFP, primary screen, imaging, TRM-6 cells (human fetal islet line), eGFP reporter, cell count | reporter expression induced with tamoxifen | inhibition, % at 2 µM | hit rate 0.9% among 130,000 | AID 1273, 2008;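 active = inhibition above the mean plus 3 SD, with well images judged a real hit on visual review, cut at about 60% in these data, passing the limit was not always enough; inconclusive = inhibition over the cutoff but images rejected on review; inactive = inhibition not above the cutoff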
HSV replic up – enhancers of HSV replication in host cells, fold increase, host cell viability. HSV replication augmentation in cells. maximum fold increase. hit rate 0.005% among 220,000. AID 1956, 2009;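 active = peak rise of 1.5-fold or more in the series; inconclusive = self-fluorescent or not available for retest; tested in PC3 cells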;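 also: first round at 10 µM; read as green reporter fluorescence; hits show the peak of a series up to 25 µM; 1 = signal of infected wells without compound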
RGS16-Gao HTS – modulators of RGS16 binding to Galphao, primary screen, biochemical, human proteins, multiplexed bead flow cytometry. Regulator of G-protein signaling 16 (Homo sapiens) + Guanine nucleotide-binding protein …. bead-based flow cytometry RGS16-Galphao binding, fluorescence; actives lie on both sides. binding response (% of control), % at 10 µM. hit rate 0.38% among 220,000. AID 1441, 2008;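 active = below 25% or above 175%, edge rows of some plates excepted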;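 also: Galphao activated by GDP with aluminum fluoride before binding; 100% = wells without compound and 0% = beads without RGS; some results beyond the cut were filed as inactive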
GALR2 agonist – GALR2 receptor agonists, primary screen, cell-based | Galanin receptor type 2 (Homo sapiens), O43603 | activation, %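 (tested at 5 µM)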 | hit rate 0.48% among 140,000 | GALR2-expressing cells, agonist activation read-out;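 active = above mean plus 3 SD of all compounds, about 5% in these data, not always enough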;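 also: 0% = vehicle buffer wells and 100% = reference agonist at full effect; tested in CHO reporter cells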
PKD1 inh – inhibitors of human PKD1 kinase, biochemical, fluorescence polarization. PKD1 kinase fluorescence polarization assay. inhibition, %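 (about 10 µM by stock and volumes)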. hit rate 0.056% among 200,000. AID 797, 2007;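 active = inhibition of 50% or more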;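 also: controls were vehicle for no effect and a reference inhibitor for full effect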
Target sequence (Q15139 whole entry, looked up): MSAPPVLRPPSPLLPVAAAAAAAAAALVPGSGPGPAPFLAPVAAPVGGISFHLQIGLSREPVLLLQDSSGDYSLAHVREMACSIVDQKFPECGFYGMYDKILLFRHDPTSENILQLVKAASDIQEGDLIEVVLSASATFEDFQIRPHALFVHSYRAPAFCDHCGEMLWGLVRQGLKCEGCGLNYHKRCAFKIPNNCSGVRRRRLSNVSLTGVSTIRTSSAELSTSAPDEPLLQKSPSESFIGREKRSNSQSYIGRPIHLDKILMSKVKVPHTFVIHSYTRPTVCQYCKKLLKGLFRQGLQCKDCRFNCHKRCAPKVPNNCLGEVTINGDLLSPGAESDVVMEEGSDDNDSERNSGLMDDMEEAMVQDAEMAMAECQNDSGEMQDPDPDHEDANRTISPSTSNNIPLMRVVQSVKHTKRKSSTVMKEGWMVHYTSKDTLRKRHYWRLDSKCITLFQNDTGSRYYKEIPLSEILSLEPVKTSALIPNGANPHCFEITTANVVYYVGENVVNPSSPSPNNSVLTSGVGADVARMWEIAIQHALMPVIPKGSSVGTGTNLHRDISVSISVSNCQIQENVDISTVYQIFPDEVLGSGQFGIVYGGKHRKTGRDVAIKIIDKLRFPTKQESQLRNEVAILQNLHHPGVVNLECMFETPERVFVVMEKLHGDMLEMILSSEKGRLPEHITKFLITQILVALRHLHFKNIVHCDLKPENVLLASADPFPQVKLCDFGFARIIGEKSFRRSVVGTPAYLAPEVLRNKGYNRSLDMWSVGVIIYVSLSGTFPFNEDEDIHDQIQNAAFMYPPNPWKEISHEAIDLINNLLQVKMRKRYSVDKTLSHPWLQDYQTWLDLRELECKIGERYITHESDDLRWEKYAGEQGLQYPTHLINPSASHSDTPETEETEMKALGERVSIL
Insulin prom inh cell count – also measured in Insulin prom inh; calls as there; normalized cell count, %; measured here: cell count, toxicity; reference of the scale not given here;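 cells exposed to compound for 48 h; stained nuclei by imaging scaled within each plate; lower means fewer cells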
HSV replic up primary fold – also measured in HSV replic up; calls as there; fold increase; compound at 10 µM; measured here: primary screen fold increase 10 uM; tested in PC3 cells;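 GFP signal in the first replicate; 1 = infected wells without compound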
Numbers without * were called inactive; i = inactive; u = inconclusive; x = no result given.

Structure,Insulin prom inh,Insulin prom inh cell count,HSV replic up,HSV replic up primary fold,RGS16-Gao HTS,GALR2 agonist,PKD1 inh
COc1ccc(C(=O)Nn2c(SCC(=O)NCc3ccco3)nc3ccccc3c2=O)cc1,-34,96,i,0.94,103,-0.6,-19
COc1cccc(/C=N/NC(=S)Nc2cccnc2)c1,11,104,i,1.1,108,x,-1
O=C(NCc1ccncc1)C(F)(F)C(F)(F)C(=O)NCc1ccncc1,8,110,i,1,99,-2.0,-17
COc1ccc(-n2c(O)c(/C=N/NS(=O)(=O)c3ccc(C)cc3)c3ccccc3c2=O)cc1OC,23,90,u,x,108,-0.9,-8
COc1ccccc1N1CCN(CCCNC(=O)Nc2ccccc2C)CC1,-61,102,i,0.77,99,-2.2,-6
COCCSc1ccccc1C(=O)Nc1cccnc1,-21,102,i,0.91,100,-2.1,-3
CCC(=O)Nc1cccc(NC(=O)c2ccccc2Br)c1,x,x,i,1.3,127,-0.1,-2
CCc1nnc(NC(=O)C2CCCN(c3nc4ccccc4s3)C2)s1 (stereo not drawn),-72,75,i,0.97,102,-2.5,1
Cc1ccn2c(C(=O)CSc3ccccc3)c(C)nc2c1,x,x,i,0.97,105,x,-3
Cc1cc(C)cc(NC(=O)Cn2c(SCc3cc(C)ccc3C)nc3ccncc32)c1,15,78,i,1.1,89,-0.5,-8
COc1cc(/C=N/n2c(=S)[nH]nc(C)c2=O)cc([N+](=O)[O-])c1O,18,71,i,1.2,104,x,-3
CCN(Cc1cc2cc(OC)ccc2[nH]c1=O)C(=O)c1ccncc1,38,161,i,1.1,102,-3.9,0
Cc1noc(C)c1C(=O)NCCCN1CCCC1=O,58,122,i,0.91,110,-0.4,-4
CCc1ccc(N=C2N=C(N)c3ccccc32)cc1,-21,91,i,0.68,98,4.7,1
O=C(c1ccccc1F)N1C(=O)c2cccc3cccc1c23,11,88,i,0.92,100,x,-1
Cc1cc(NC(=O)CSc2ncn[nH]2)no1,x,x,i,0.96,128,x,-4
N#C/C(C(N)=O)=C1/SC=C(c2ccccc2)N1c1ccccc1,x,x,i,1.1,103,x,x
N#Cc1c(Cl)nc2c(c1C#N)CCCC2,x,x,i,1.1,108,x,x
CC(=O)N1CCC(N(CCN2CCOCC2)C(=S)Nc2ccccc2C)CC1,-22,89,i,0.98,108,0.7,-7
COc1ccc(OC)c2c(N3CCN(C)CC3)cc(C(F)(F)F)nc12,x,x,i,0.95,116,0.1,1
C(=N\N(c1ccccc1)c1ccccc1)/c1ccc2c(c1)OCO2,14,180,i,0.95,100,0.1,6
N#CCSc1nc(-c2ccccc2)cs1,8,135,i,1,103,-1.0,-5
Cc1cccc(C(=O)Nc2scc(CC(C)C)c2C(=O)O)c1,29,151,i,0.91,103,-1.4,-4
CCOc1ccc(C2C(C(=O)NC)=C(C)Nc3nc4ccccc4n32)cc1OC (stereo not drawn),x,x,i,1.1,x,-1.4,-14
COc1ccccc1N1CCN(C(=O)COc2ccc(S(=O)(=O)NC(C)C)cc2)CC1,x,x,i,0.94,104,x,-13
Cc1cc(F)ccc1NCC(=O)Nc1ccc(Br)cc1C,x,x,i,0.99,102,0.2,0
Cc1nn(CC(=O)NCc2ccccc2Cl)c(C)c1[N+](=O)[O-],x,x,i,0.77,96,-1.6,13
Cc1ccc(-c2ccc(=O)n(CC(=O)NCCCN3CCCCC3)n2)cc1,6,102,i,0.76,101,-0.9,-9
COC(=O)C/C=C/[C@@H](C)[C@@H](/C=N/O[C@@H](C)c1cn([C@H](CO)Cc2ccccc2)nn1)NS(=O)(=O)c1ccc(C)cc1,0,78,x,x,78,-2.6,19
O=[N+]([O-])c1ccc(-c2cnc(SC(c3ccccc3)c3ccccc3)[nH]2)cc1,x,x,i,1,95,-1.3,-5

Structure,Insulin prom inh,Insulin prom inh cell count,HSV replic up,HSV replic up primary fold,RGS16-Gao HTS,GALR2 agonist,PKD1 inh
O=C(NCc1cccc(C(F)(F)F)c1)c1cccc(Cl)c1Cl,54,82,i,0.81,101,-1.2,0
Nc1ccccc1C(=O)Nc1nccs1,x,x,i,0.89,106,x,-3
O=C(Nc1cc(S(=O)(=O)N2CCOCC2)ccc1N1CCCC1)c1ccc2c(c1)S(=O)(=O)c1ccccc1C2=O,x,x,i,0.98,89,x,-10
O=[N+]([O-])c1ccccc1/C=C/C=N/Nc1ccc(S(=O)(=O)Nc2ccc(Cl)cc2)cc1[N+](=O)[O-],x,x,i,0.92,101,x,-9
Cc1onc(-c2ccccc2Cl)c1C(=O)N1CCCCC1C(=O)O (stereo not drawn),x,x,i,0.97,101,-0.7,-17
Cc1ccc2c(C(=O)CN3CCSCC3)c(C)[nH]c2c1,28,129,i,0.9,97,-2.1,-4
Cc1nn(C)cc1/C=N/NC(=S)Nc1ccc(Cl)cc1Cl,-29,75,i,0.86,102,-2.6,-11
CCN(CC)c1ccc([N+](=O)[O-])cc1/C=N/NC(=O)CC#N,-7,84,i,1,102,-1.4,-5
CCN1CCN(C(=O)c2cc3sccc3n2CC(=O)c2ccccc2)CC1,-43,77,i,0.96,102,-2.7,0
CC(C)CCNC(=O)CO/N=C/c1ccccc1OC(F)F,x,x,i,1,104,-0.8,-9
CCOC(=O)N1CCC(N2C(=O)c3ccccc3C2Nc2ccc3c(c2)OCCO3)CC1 (stereo not drawn),x,x,i,0.94,101,-2.5,5
O=C(CN1C(=O)c2cccc3cccc1c23)N1CCN(Cc2ccc3c(c2)OCO3)CC1,-500,114,i,0.98,107,-0.3,1
O=C(NN1c2ccccc2CCc2ccccc21)c1ccccc1Br,x,x,i,0.99,105,-0.4,6
COc1ccc(Cc2nc3ccc(S(=O)(=O)N4CCOCC4)cc3[nH]2)cc1OC,3,193,i,1.1,93,-3.3,-9
CC1(C)CC(NC(=S)Nc2ccc(S(N)(=O)=O)cc2)CC(C)(C)N1,-17,115,i,0.92,91,x,-14
O=c1c(Cc2ccc(F)cc2)c(O)ccn1CCc1cnc[nH]1,x,x,i,1.1,99,x,-4
NC(=O)c1cnn(-c2cc(Oc3ccccc3)ncn2)c1N,x,x,i,0.89,102,x,9
O=C(CSc1nccc(-c2ccc(Br)cc2)n1)NCCc1ccccc1,x,x,i,0.95,105,1.1,-9
Cc1onc(-c2ccc(Cl)cc2Cl)c1C(=O)/C=C/N(C)C,x,x,i,1.1,97,x,x
CCOC(=O)Nc1ccc(S(=O)(=O)Nc2cc(C)nc(C)n2)cc1,-7,107,i,0.75,106,-2.5,6
COc1ccc(C(=O)N=c2sccn2C)cc1,50,96,i,0.94,86,x,-2
COC(=O)c1ccccc1NC(=O)CN(C)S(=O)(=O)c1ccc(OC)cc1,43,70,i,0.88,99,-1.1,-4
Cc1ccc(CNC(=O)C(=O)NCC2OCCN2C(=O)c2ccc3c(c2)OCO3)cc1 (stereo not drawn),x,x,i,1.1,102,x,10
COCCNC(=O)C(c1ccncc1)N(C(=O)c1sc(C)nc1C)c1cccc(C)c1 (stereo not drawn),x,x,i,0.8,112,x,-5
Cc1ccc(C(=O)N/N=C/C=C/c2ccccc2)o1,x,x,i,0.91,116,x,-1
O=C(Nn1c(SCc2ccc(F)cc2)nc2ccsc2c1=O)c1ccccc1,x,x,i,1,42,-0.7,-4
Cn1c(=O)n(Cc2ccccc2F)c(=O)c2c1nc1n2CCN1Cc1ccco1,8,92,i,0.98,101,x,2
CC(C)(C)c1ccc(NC(=O)c2ccsc2)cc1,x,x,i,0.9,106,x,x
COc1ccc(CNC(=O)CSc2nnc3nc(C)cc(C)n23)cc1OC,x,x,i,0.95,101,x,-8
COCCNC(=O)/C=C/c1c(Cl)cccc1Cl,71*,92*,i,0.92,119,-0.4,-3

Structure,Insulin prom inh,Insulin prom inh cell count,HSV replic up,HSV replic up primary fold,RGS16-Gao HTS,GALR2 agonist,PKD1 inh
CCCC(=O)Nc1cccc2c1CCCC2,x,x,i,0.94,109,1.2,-10
CC(=O)Oc1ccccc1N(C(C)=O)S(=O)(=O)c1ccc2ccccc2c1,33,88,i,0.74,105,x,0
CCCCN(C(=O)NC(=O)Nc1cccc(C)c1C)S(C)(=O)=O,43,117,i,0.91,101,0.0,-1
CCOC(=O)c1sc(NC(=O)c2ccc(S(=O)(=O)N3CCOCC3)cc2)nc1-c1ccccc1,x,x,i,0.97,123,-0.1,2
CCOC(=O)c1sc(N)nc1C(C)(C)C,x,x,i,1,103,-0.5,-7
O=C(Cc1ccc(F)cc1)NC1CCSC1=O (stereo not drawn),0,76,i,1,103,x,-3
O=C(NCc1ccccc1F)C1CCN(C(=O)c2sccc2-n2cccc2)CC1,x,x,i,1.1,99,x,2
O=c1[nH]c2c(s1)C(c1ccccc1)C1C3CCC(C3)C1S2 (stereo not drawn),-6,109,i,0.99,79,-2.9,-1
CCN(CCCNC(=O)C1CCC(=O)N1Cc1ccc(C)cc1)c1cccc(C)c1 (stereo not drawn),15,68,i,1,74,-2.1,-3
O=C(NC1CCCc2ccccc21)c1cn2ccccc2n1 (stereo not drawn),0,142,i,0.97,108,x,-6
CCn1c(COc2ccc(=O)n(-c3ccccc3)n2)n[nH]c1=S,x,x,i,0.88,100,x,-2
Cc1nn(C)c(=O)n1N(C)c1ncc(C(F)(F)F)cc1Cl,x,x,i,0.93,94,x,0
Cc1nc(NCCc2ccccc2)c2oc3ccccc3c2n1,69*,150*,i,0.75,107,-4.4,-1
Cc1ccc(NCc2ccc(O)c3ncccc23)cc1C,79*,105*,i,1,99,x,-2
O=C(c1cccc(F)c1)N1CCc2ccccc2C1,15,105,i,0.97,96,1.6,-4
O=C(CCN1C(=O)/C(=C/c2ccc(F)cc2)SC1=S)NNC(=O)c1cccnc1,x,x,i,1,52,0.9,-5
C=CCNC(=O)c1cnc2n(c1=O)CCS2,43,111,i,1,99,-0.8,-4
Cc1cc(=O)oc2cc(OCC(=O)NCc3ccco3)ccc12,-16,131,i,0.73,113,-3.3,-8
CCOC(=O)CSc1nc2sc3c(c2c(=O)n1C1CCCCC1)CCN(C)C3,-243,83,i,1,103,-1.5,3
CC1CCC/C(=N\Nc2ccc(Cl)c(C(=O)O)c2)C1 (stereo not drawn),7,76,i,1.1,83,-1.8,-12
O=C(O)CN1C(=O)/C(=C/c2ccc(N3CCCCC3)o2)SC1=S,x,x,i,1,104,x,x
CCOc1ccc(CNC(=O)c2cc3oc4ccccc4c3n2C)cc1,25,123,i,0.83,102,-4.0,-6
COc1cc(OC)c(-c2cc(C(=O)O)ccc2OC)c(OC)c1,0,122,i,0.92,97,-1.9,-5
Cc1ccc(C(=O)NC(NC(=O)c2ccc(C)cc2)c2cccc([N+](=O)[O-])c2)cc1,x,x,i,1,101,-0.9,-7
O=C(CSC1=NS(=O)(=O)c2ccccc21)Nc1ccccc1,x,x,i,0.65,88,-3.8,1
Cc1ccc(C2c3c(-c4ccccc4O)n[nH]c3C(=O)N2Cc2ccncc2)cc1 (stereo not drawn),x,x,i,0.81,100,-1.9,-7
CCn1c(SCC(=O)NCc2ccco2)nc2cccnc21,56,174,i,0.99,98,-2.8,-2
Cc1onc(-c2c(Cl)cccc2Cl)c1COC(=O)c1ccc([N+](=O)[O-])cc1,x,x,i,1.1,94,x,x
Cc1cc(C)nc(/N=C2\NC(=O)CC(C(=O)O)N2c2cccc(Cl)c2)n1 (stereo not drawn),x,x,i,1,100,x,-8
Cc1cccc(CN2CCN(C(=S)Nc3ccccc3)CC2)c1,x,x,i,0.95,109,x,-2
CC(C)n1cc(C(=O)c2cc(Br)ccc2O)cc(C#N)c1=O,67,29,i,0.96,102,-1.7,-5
CCOc1ccc(N/C(N)=N/c2nc(CSc3nnc(C)s3)cc(=O)[nH]2)cc1,x,x,i,0.73,100,x,x

Some of these compounds in order of molecular weight, high to low.
Structure,Insulin prom inh,Insulin prom inh cell count,HSV replic up,HSV replic up primary fold,RGS16-Gao HTS,GALR2 agonist,PKD1 inh
Cn1c(=O)n(Cc2ccccc2F)c(=O)c2c1nc1n2CCN1Cc1ccco1,8,92,i,0.98,101,x,2
O=C(NCc1ccncc1)C(F)(F)C(F)(F)C(=O)NCc1ccncc1,8,110,i,1,99,-2.0,-17
CCN(CC)c1ccc([N+](=O)[O-])cc1/C=N/NC(=O)CC#N,-7,84,i,1,102,-1.4,-5

Rows were taken by chance. About 1.2% of those tested had a hit in this group.
